MARV entry inh: inhibitors of Marburg virus binding or cell entry; Marburg virus pseudotyped entry inhibition, cell reporter; control for the full effect not named in the record; about a third of the inactives were read at about 46 µM; hit rate 1.8% among 300,000; Potency, µM (series often up to 37.8 µM), without a hit: at the highest dose activity change, negative = inhibition, hits mostly inhibitors; AID 540276; active = well fitted inhibition curve with a large enough effect; inconclusive = small, poorly fitted or top-dose-only effect, or effect the other way; inactive = flat fitted curve, though single readings scatter; tested in HEK293 cells; about a fifth of its hits are not listed in these tables; also: % is scaled to controls: 0 for no effect and ±100 for the full control effect; luciferase read-out
RE007 growth inh: less growth of the S. pombe RE007 Vpr strain | hit rate 0.21% among 360,000 | S. pombe RE007 Vpr strain, BacTiter-Glo ATP luminescence, 24 h; control for the full effect not named in the record | AID 651644 | Potency, µM (titrated, usually from 92.2 µM), inactives show at the highest dose activity change, negative = less growth; active = well fitted falling curve with a large enough effect; inconclusive = small, poorly fitted or top-dose-only effect; inactive = no such curve, though single readings can be large or run the other way;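 also: % is scaled to controls: 0 for no effect and ±100 for the full control effect; nearly all actives have a fitted effect of over 50% in size; the assay follows cell death caused by Vpr and the record does not say whether a fall means rescue or toxicity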
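Fission yeast strain RE007, carrying one chromosomally integrated HIV-1 vpr copy, was seeded at OD 0.01 in PMG+AL medium with 23 nL pinned compound. After 24 h at 30 °C and 99% humidity, viability was read by BacTiter-Glo luminescence.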
Cruzain noTriton: cruzain (T. cruzi) inhibition without detergent; P25779; purified cruzain, Z-FR-AMC fluorescence, no detergent; Potency, µM, for inactives: max response, negative = inhibition, most hits filed as inhibitors; hit rate 2.3% among 200,000; AID 1476;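 also: plate controls were enzyme without inhibitor for no effect and buffer without enzyme for full effect; nearly all actives have a fitted effect of over 40% in size; top concentration of the series not given in the record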
Target sequence (P25779 123-467 limits assumed): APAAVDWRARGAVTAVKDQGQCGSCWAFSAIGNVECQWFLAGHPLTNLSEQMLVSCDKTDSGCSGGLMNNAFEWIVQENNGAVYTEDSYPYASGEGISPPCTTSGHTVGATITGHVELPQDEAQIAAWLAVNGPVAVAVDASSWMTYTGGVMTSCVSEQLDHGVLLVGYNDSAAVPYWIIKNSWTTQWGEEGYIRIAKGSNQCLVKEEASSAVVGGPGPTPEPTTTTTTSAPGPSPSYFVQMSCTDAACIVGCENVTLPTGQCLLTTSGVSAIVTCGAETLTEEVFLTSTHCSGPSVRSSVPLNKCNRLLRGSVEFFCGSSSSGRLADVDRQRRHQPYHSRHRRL
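Purified cruzain at 1.5 nM, pre-incubated 15 min with compound at room temperature in 100 mM sodium acetate pH 5.5, 5 mM DTT, 0.00005% Triton X-100. Reaction started with 2 uM Z-FR-AMC; AMC fluorescence increase over 60 s gives rate.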
SARS PLpro yeast: inhibitors of SARS-CoV papain-like protease in yeast; S. cerevisiae expressing SARS-CoV PLpro, growth rescue; control for the full effect not named in the record; Potency, µM (titrated, usually from 32.9 µM), for inactives: at the highest dose activity, positive = growth rescue; hit rate 0.19% among 330,000; AID 485353; active means well fitted rising curve with a large enough effect; inconclusive means small, poorly fitted or top-dose-only effect; inactive means no such curve, though single readings can be large or run the other way; also: 0% is about no effect; nearly all actives have a fitted effect of over 55% in size; growth read by luminescence after 48 h
NS1 inh: influenza NS1 inhibition; S. cerevisiae slowed by influenza A NS1, growth recovery by OD600; Potency, µM (top dose mostly 46.1 µM), for the others: at the top dose activity, positive = more growth; hit rate 0.4% among 270,000; AID 2326; active means well fitted rising curve with a large enough effect; inconclusive means small, poorly fitted or top-dose-only effect; inactive means no such curve, though single readings can be large or run the other way; also: nearly all actives have a fitted effect of over 50% in size
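Read-out: OD600 growth recovery of NS1-expressing budding yeast. Cells grown overnight at 30C in -URA glucose medium, washed, resuspended and diluted 1:100 in 2% galactose assay medium, pH 6.0. Same strain lacking NS1 served as positive control.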
Cruzain Triton: inhibitors of Trypanosoma cruzi cruzain with detergent. P25779. purified cruzain, Z-FR-AMC fluorescence, 0.01% Triton. hit rate 0.43% among 200,000. Potency, µM, inactives show max response, negative = inhibition, most hits filed as inhibitors;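 also: plate controls were neutral wells for no effect and buffer without enzyme for full effect; nearly all actives have a fitted effect of over 40% in size; top concentration of the series not given in the record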
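Sodium acetate buffer (100 mM, pH 5.5) containing 5 mM DTT and 0.01% Triton X-100 hosted 1.5 nM cruzain and test compound for 15 min at room temperature. Cleavage of 2 uM Z-FR-AMC was then tracked by fluorescence.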
2A StopGo: lowers the luciferase signal of an FMDV 2A StopGo reporter. human cells with a luciferase reporter of 2A StopGo recoding; control for the full effect not named in the record. Potency, µM (titrated, usually from 57.9 µM), for inactives: at the highest dose signal change, negative = less light. AID 1159524. hit rate 1.2% among 410,000; active = well fitted falling curve with a large enough effect; inconclusive = small, poorly fitted or top-dose-only effect; inactive = no such curve, though single readings can be large or run the other way; tested in HEK293T cells; also: % is scaled to controls: 0 for no effect and ±100 for the full control effect; nearly all actives have a fitted effect of over 45% in size; luciferase light after 4 h
Lassa entry inh: blocks Lassa virus binding to or entry into cells. Lassa virus pseudotype entry inhibition, cell reporter; control for the full effect not named in the record. Potency, µM (highest dose often 37.9 µM), without a hit: at the highest dose activity change, negative = inhibition, usual class: inhibitors. hit rate 1.2% among 300,000; active means well fitted inhibition curve with a large enough effect; inconclusive means small, poorly fitted or top-dose-only effect, or effect the other way; inactive means flat fitted curve, though single readings scatter; tested in HEK293 cells; also: % is scaled to controls: 0 for no effect and ±100 for the full control effect; nearly all actives have a fitted effect of over 50% in size; luciferase read-out
An asterisk follows results filed as active; ? = inconclusive; . = not tested or not shown; & = joins results of further samples; [ ] = dose if it differs, or a comment. Unless noted, calls follow the shape of the dose curve; as a rule, active = well fitted curve in the direction sought with a large enough effect; inconclusive = small, poorly fitted or top-dose-only effect, or another doubt; inactive = no such curve, though single readings can be large; an effect the other way counts as inactive or inconclusive. Potency is read from the fitted curve at half-maximal effect. Rows are unselected; about 4.7% have a hit in one of these screens.

SMILES	MARV entry inh	RE007 growth inh	Cruzain noTriton	SARS PLpro yeast	NS1 inh	Cruzain Triton	2A StopGo	Lassa entry inh
Cc1ccc(Nc2nc(COC(=O)COc3ccc(C=O)cc3)cs2)cc1	-15%	-2%	-6%	-19%	-23%	-8.1%	0%	-4%
CCC(C)N(NC(C)=O)c1nc(Cl)nc(NC(C)C)n1 (stereo unspecified)	-10%[46.1 µM]	-1%	3%	-5%	9%	1.0%	1%	0%
CN=C(NC)SC1CC(=O)N(c2ccccc2)C1=O (stereo unspecified)	-5%	-4%	-4%	4%	-5%	5.5%	0%	-7%
CSc1ccc(/C=C2\C(=N)N3N=C(CC(=O)N4CCOCC4)SC3=NC2=O)cc1	.	5%	.	-4%	4%	.	8%	.
Cc1cc(C)cc(NC(=O)Cn2c(C)cc(C)c(C#N)c2=O)c1	.	.	6%	.	.	-5.9%	-23%	9%[46.1 µM]
CCN(C(=O)CSc1nnc(Nc2ccc(OC)cc2)s1)C1CCS(=O)(=O)C1 (stereo unspecified)	0%[46.1 µM]	-10%	.	-43%	.	.	32%[activator]	-13%[46.1 µM]
Cc1ccc(Cl)cc1-n1ncc2c(NC3CCCCCC3)ncnc21	.	.	-14%	.	.	-0.3%	?	-18%[46.1 µM]
Cc1ccc(C(=O)NNC(=O)CSc2nnc(-c3ccncc3)n2-c2ccc(C)cc2)cc1	.	.	6%	3%	-13%	0.6%	.	.
CCOc1ccc(OCC)c(NC(=O)Cn2nc(CC)n3c(cc4sccc43)c2=O)c1	1%[46.1 µM]	.	6%	.	.	0.5%	22%	.
CCOC(=O)c1ccc(NC(=O)Cn2cccc2)cc1	24%	9%	-2%	?	-13%	1.1%	29%	1%
O=C(O)C/C(=C\c1cc(Br)cs1)c1nc2ccccc2o1	20%[46.1 µM]	1%	.	-2%	-105%	.	42%[activator]	18%[46.1 µM]
COc1ccccc1C(=O)COC(=O)c1ccc(N(C)C)cc1	?	3%	.	-5%	.	.	26%	-23%
CC(C)(C)N1NC(=O)Nc2ccccc2C1=O	1%[46.1 µM]	-3%	-4%	-3%	6%	8.3%	-1%	?
Cc1noc(C)c1CSc1ncnc2sc3c(c12)CCCCC3	5%	.	-14%	-15%	-10%	-8.0%	?	0%
CCCCn1c(N)c(N(CC)C(=O)CSc2nnc(-c3ccco3)n2CC)c(=O)[nH]c1=O	2%	4%	.	2%	.	.	-5%	4%

Single records, as listed above.
`CSc1ccc(/C=C2\C(=N)N3N=C(CC(=O)N4CCOCC4)SC3=NC2=O)cc1` as listed: MARV entry inh = .; RE007 growth inh = 5%; Cruzain noTriton = .; SARS PLpro yeast = -4%; NS1 inh = 4%; Cruzain Triton = .; 2A StopGo = 8%; Lassa entry inh = .
`CCOC(=O)c1ccc(NC(=O)Cn2cccc2)cc1` as listed: MARV entry inh = 24%; RE007 growth inh = 9%; Cruzain noTriton = -2%; SARS PLpro yeast = ?; NS1 inh = -13%; Cruzain Triton = 1.1%; 2A StopGo = 29%; Lassa entry inh = 1%
`CCCCn1c(N)c(N(CC)C(=O)CSc2nnc(-c3ccco3)n2CC)c(=O)[nH]c1=O` as listed: MARV entry inh = 2%; RE007 growth inh = 4%; Cruzain noTriton = .; SARS PLpro yeast = 2%; NS1 inh = .; Cruzain Triton = .; 2A StopGo = -5%; Lassa entry inh = 4%

(more compounds)
SMILES	MARV entry inh	RE007 growth inh	Cruzain noTriton	SARS PLpro yeast	NS1 inh	Cruzain Triton	2A StopGo	Lassa entry inh
CCn1c(=S)[nH]c2nc3c(cc2c1=O)CCCC3	14%	-4%	2%	-1%	11%	1.2%	-3%	29%
CCOc1ccc(N(CC)S(=O)(=O)c2cccc3nsnc23)cc1	-9%[46.1 µM]	-6%	.	-1%	-12%	.	-20%	-27%[46.1 µM]
Cc1ccc(-n2nc(C)c(/C=N/NC(=O)c3cccnc3)c2Cl)cc1	6%	1%	22%	-7%	2%	-4.3%	-6%	7%
O=C(Nc1nccs1)c1cc(S(=O)(=O)N2CCCCC2)ccc1Cl	?	8%	1%	0%	0%	-2.7%	?	4%
O=C(c1cc(COc2c(F)cccc2F)on1)N1CCC(c2ccccc2F)C1 (stereo unspecified)	11%[46.1 µM]	-3%	.	-1%	5%	.	11%	0%
O=C(COC(=O)C1(c2ccc(Cl)cc2)CCCC1)Nc1ncc(C(F)(F)F)cc1Cl	.	2%	29%	-54%	-30%	-11%	?	.
Cc1ccc(NC(=O)CSCc2cc(=O)n3ccsc3n2)cc1	.	-2%	.	11%	0%	.	54%[activator]	.
Cc1nc(Cl)sc1C(=O)O	-5%	4%	9%	1%	-1%	10.0%	6%	?
CCC(C)NC(=O)c1cc(-c2ccccc2O)on1 (stereo unspecified)	.	-2%	-4%	0%	-13%	1.5%	106%[activator]	.
CC1(C)CC(=O)c2c(Cc3ccccc3)noc2C1	19%	-7%	.	0%	.	.	-3%	1%
CCn1c(SCc2cccc(C(F)(F)F)c2)nnc1-c1ccco1	-28%	20%	-18%	16%	-61%	-19%	-1%	9%
CCN(CC)Cc1c(O)ccc2c(=O)c(-c3ccccc3)coc12	.	-1%	.	4%	14%	.	31%[activator]	.
CCS(=O)(=O)N1CCC(C(=O)NCc2cccnc2)CC1	0%	16%	5%	-4%	-1%	6.4%	.	1%
CN(c1cccc(NS(=O)(=O)c2cccc([N+](=O)[O-])c2)c1)S(C)(=O)=O	16%[46.1 µM]	2%	.	0%	7%	.	23%	30%[46.1 µM]
COc1cc(C2NC(=O)c3c(sc4c3CCN(C)C4)N2)cc(OC)c1OC (stereo unspecified)	-14%[46.1 µM]	.	-13%	.	.	-9.3%	1%	-6%[46.1 µM]
COc1cc(/C=N/Nc2ccccc2[N+](=O)[O-])ccc1OC(=O)c1ccccc1F	?	-1%	.	0%	.	.	0%	19%[46.1 µM]
Clc1nnc2c3ccccc3ccn12	4%	11%	.	.	.	.	-13%	2%
CC(=O)c1cccc(S(=O)(=O)N(Cc2cc3cc4c(cc3[nH]c2=O)OCCO4)CC2CCCO2)c1 (stereo unspecified)	-2%&-9%	8%	?	-3%	-1%	-0.8%	-6%	-24%
O=c1sc2ccccc2c(N2CCOCC2)c1[N+](=O)[O-]	3%	9%	.	-9%	-54%	.	5%	6%
CC(C)c1ccc(NC(=O)C(Cc2ccccc2)NS(=O)(=O)c2ccc3c(c2)CCC(=O)N3)cc1 (stereo unspecified)	-17%[46.1 µM]	.	-3%	.	.	-1.6%	0%	-12%[46.1 µM]
Cc1cc(Oc2ccccc2)nc(SCC(N)=O)n1	7%[46.1 µM]	-9%	-10%	-1%	5%	1.1%	-25%	1%
COc1cccc(OCCNC(=O)c2cc([N+](=O)[O-])cc([N+](=O)[O-])c2)c1	-19%[46.1 µM]	-5%	.	3%	.	.	-8%	10%
CC(C)(C)OC(=O)[C@H](Cc1ccccc1)NC(=O)c1nc[nH]c1C(=O)NC1CCN(C(=O)OC(C)(C)C)CC1	.	2%	.	0%	12%	.	?	.
CCOC(=O)N1CC=C2C(C#N)=C(N)C(C#N)(C#N)[C@H](c3ccc(OCC)c(OCC)c3)[C@H]2C1	0%&-21%	-13%	?	0%	5%	1.9%	-29%	?
Cc1ccc(NC(=O)Cn2c(=O)c3ccc(Cl)cc3n3nncc23)cc1	10%[46.1 µM]	.	-3%	.	.	-0.9%	-15%	3%[46.1 µM]
Cc1cccc(NC(=O)c2ccc(Cl)nc2)n1	9%[46.1 µM]	-7%	.	.	-5%	.	23%	-4%[46.1 µM]
CC(C)c1ccc(NC2CCCN(C(=O)c3cccc(N4CCNC4=O)c3)C2)cc1 (stereo unspecified)	.	3%	.	-2%	-11%	.	6%	.
Cc1cc(NC(=O)CCC(=O)N(c2cccc(F)c2)C(C(=O)NC2CCCC2)c2ccc(C)o2)no1 (stereo unspecified)	?	-24%	.	1%	-1%	.	-4%	?
O=C(C1=NNCC1c1ccccc1)C1CO1 (stereo unspecified)	-32%	14%	-4%	-4%	-4%	-6.7%	-25%	-16%
COC(=O)C1=CN(C(C)C)C=C(C(=O)OC)C1c1cccc(OC)c1	-11%	-7%	-9%	-1%	-15%	-11%	?	-20%
Cc1nccn1CCCNC(=O)CC1C(=O)NCCN1Cc1ccc(F)cc1Cl (stereo unspecified)	29%	0%	.	6%	-1%	.	-13%	24%
O=S(=O)(/C(=C\c1ccc(C(F)(F)F)cc1)c1nc2ccccc2[nH]1)c1ccccc1	4µM*	-22%	.	.	.	.	11µM*	3.5µM*
N#Cc1cc([N+](=O)[O-])cnc1NCC(O)CO (stereo unspecified)	-6%	20%	-3%	-25%	-6%	-5.3%	-17%	-7%
CC(C)NC(=O)NC(=O)CSc1nnc(C(F)(F)F)n1C	-3%[46.1 µM]	1%	.	0%	.	.	-2%	-2%
N#CCCCN1C(=O)C(O)(CC(=O)c2ccc3c(c2)OCCO3)c2ccccc21 (stereo unspecified)	6%	17%	0%	-3%	-1%	0.8%	11%	?
Cc1[nH]c(=O)c(C(=O)/C=C/c2ccccc2F)c2c1CCCC2	12µM*	2%	-3%	2%	7%	-3.8%	14µM*	10µM*
Cc1cccc(C(=O)NC2CCN(CC(=O)Nc3ccc4c(c3)OCO4)CC2)c1	0%[46.1 µM]	1%	.	-2%	4%	.	-22%	12%
CC1=C(C(=O)OCC2CCCO2)C(c2ccccc2Cl)NC(=O)N1 (stereo unspecified)	6%	9%	-7%	15%	-6%	-1.4%	-12%	6%
CCOC(=O)c1c(C)[nH]c(C)c1C(=O)COC(=O)c1ccc(Cl)c(S(N)(=O)=O)c1	?	11%	-5%	5%	-2%	-0.9%	-19%	-2%
COc1ccc(N(CC(=O)NCc2ccccc2)C(=O)CCC(=O)Nc2cc(C)ccn2)c(OC)c1	?	3%	.	-1%	-35%	.	-17%	?

Screens: PubChem BioAssay, National Center for Advancing Translational Sciences (NCATS)
